# HSV replic up: HSV replication enhancement. hit rate 0.005% among 220,000. AID 1956. HSV replication augmentation in cells, fold increase. maximum fold increase;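 active = peak rise of 1.5-fold or more in the series; inconclusive = self-fluorescent or not available for retest; tested in PC3 cells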;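 also: first round at 10 µM; read as green reporter fluorescence; hits show the peak of a series up to 25 µM; 1 = signal of infected wells without compound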
# RGS16-Gao: RGS16-Galphao interaction regulator (human); O15492+P09471; bead-based flow cytometry RGS16-Galphao binding, fluorescence; actives lie on both sides; binding response (% of control), % at 10 µM; hit rate 0.38% among 220,000;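 active = below 25% or above 175%, edge rows of some plates excepted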;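 also: Galphao activated by GDP with aluminum fluoride before binding; 100% = wells without compound and 0% = beads without RGS; some results beyond the cut were filed as inactive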
# GALR2 ag: activates the human galanin receptor 2; hit rate 0.48% among 140,000; O43603; activation, %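 (tested at 5 µM)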; AID 803; GALR2-expressing cells, agonist activation read-out;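 active = above mean plus 3 SD of all compounds, about 5% in these data, not always enough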;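 also: 0% = vehicle buffer wells and 100% = reference agonist at full effect; tested in CHO reporter cells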
# PKD1 kinase inh: blocks activity of human protein kinase D1; Q15139; PKD1 kinase fluorescence polarization assay; inhibition, %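 (about 10 µM by stock and volumes)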; hit rate 0.056% among 200,000; AID 797;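 active = inhibition of 50% or more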;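 also: controls were vehicle for no effect and a reference inhibitor for full effect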
# Target sequence (Q15139 whole entry, looked up): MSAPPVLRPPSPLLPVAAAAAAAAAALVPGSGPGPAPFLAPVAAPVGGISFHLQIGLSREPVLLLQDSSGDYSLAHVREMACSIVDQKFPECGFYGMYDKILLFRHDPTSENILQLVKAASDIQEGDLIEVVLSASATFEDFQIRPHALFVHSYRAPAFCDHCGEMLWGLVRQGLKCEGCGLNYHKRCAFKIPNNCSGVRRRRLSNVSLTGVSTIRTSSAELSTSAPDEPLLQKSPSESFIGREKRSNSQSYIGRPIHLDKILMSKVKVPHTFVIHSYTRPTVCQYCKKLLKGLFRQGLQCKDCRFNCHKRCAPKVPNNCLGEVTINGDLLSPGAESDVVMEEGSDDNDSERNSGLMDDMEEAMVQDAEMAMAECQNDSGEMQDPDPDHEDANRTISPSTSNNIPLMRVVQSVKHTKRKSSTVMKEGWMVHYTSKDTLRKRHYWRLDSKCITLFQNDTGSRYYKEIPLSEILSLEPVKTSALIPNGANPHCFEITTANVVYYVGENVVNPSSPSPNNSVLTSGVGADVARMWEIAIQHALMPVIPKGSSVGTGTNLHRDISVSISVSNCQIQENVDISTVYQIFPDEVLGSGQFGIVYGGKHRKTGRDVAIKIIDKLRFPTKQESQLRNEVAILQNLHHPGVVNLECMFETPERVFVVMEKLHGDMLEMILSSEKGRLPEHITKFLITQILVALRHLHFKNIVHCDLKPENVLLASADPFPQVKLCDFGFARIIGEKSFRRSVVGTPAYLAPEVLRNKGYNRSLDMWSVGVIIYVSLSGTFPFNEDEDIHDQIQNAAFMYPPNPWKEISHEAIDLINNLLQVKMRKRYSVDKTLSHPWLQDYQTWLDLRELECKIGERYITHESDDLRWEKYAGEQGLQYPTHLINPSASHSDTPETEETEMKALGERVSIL
# INS promoter inh: TRM-6 insulin promoter activity inhibition; TRM-6 cells (human fetal islet line), insulin promoter-eGFP reporter, imaging; reporter expression induced with tamoxifen; inhibition, % at 2 µM; hit rate 0.9% among 130,000; AID 1273;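 active = inhibition above the mean plus 3 SD, with well images judged a real hit on visual review, cut at about 60% in these data, passing the limit was not always enough; inconclusive = inhibition over the cutoff but images rejected on review; inactive = inhibition not above the cutoff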
# INS promoter inh cell count: second read-out of INS promoter inh, no call of its own (marks repeat the call); normalized cell count, %; measured here: cell count, toxicity; reference of the scale not given here;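 cells exposed to compound for 48 h; stained nuclei by imaging scaled within each plate; lower means fewer cells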
# HSV replic up primary fold: recorded beside HSV replic up, whose call it bears; fold increase; compound at 10 µM; measured here: primary screen fold increase 10 uM; tested in PC3 cells;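 GFP signal in the first replicate; 1 = infected wells without compound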
# The depositor's hits bear a star; i = inactive; u = inconclusive; x = not tested or not shown.
# Value order: HSV replic up, HSV replic up primary fold, RGS16-Gao, GALR2 ag, PKD1 kinase inh, INS promoter inh, INS promoter inh cell count
CCN1CCN(c2nc(SC)nc3sc4c(c23)CC(C)(C)OC4)CC1
  i, 0.82, 155, -0.5, -1, -11, 122
CCCCOc1ccc(Cl)cc1CSc1nnc(CC)n1N
  i, 1, 115, -0.1, -3, -16, 141
CCNC(=O)C/C(C)=N/NC(=O)C12CC3CC(CC(C3)C1)C2
  i, 0.9, 72, -0.2, -1, x, x
Cc1nnc(NC(=O)c2ccc(S(=O)(=O)N3CCOCC3)cc2)s1
  i, 1.2, 97, x, x, x, x
CCOC(=O)C(Cc1ccccc1)(NC(C)=O)C(=O)OCC
  i, 1, 101, -0.3, -10, -4, 121
C/C(CCc1ccccc1)=N\NC(=O)CC(=O)NCCc1ccccc1
  i, 0.96, 87, -1.1, -8, -25, 83
CN(C)c1ccc(N2C(=O)CC(Sc3ccccc3C(=O)O)C2=O)cc1 (stereo not given)
  x, x, 98, -2.1, -5, -69, 107
CC12CCC(c3nnc(SCc4ccc(Cl)cc4)nc31)C2(C)C (stereo not given)
  i, 1.2, 99, -0.1, -7, x, x
COc1ccc(NC(=S)N2CCC(c3nc4ccc(Cl)cc4[nH]3)CC2)c(OC)c1
  i, 1.1, 100, -4.9, 2, x, x
CCSC1(SCC)N=C(N)C2(C#N)C(c3ccc(F)cc3)C12C#N (stereo not given)
  i, 0.77, 99, -0.1, -9, -15, 38
CN(Cc1cn(C)nc1-c1ccc(Oc2ccccc2)cc1)Cc1cnc2ccccn12
  i, 0.98, 104, x, 6, x, x
CCC(=O)Nc1nc(-c2ccc3c(c2)OCCO3)cs1
  i, 1.1, 105, -2.1, 0, x, x
O=C(NCc1ccccn1)c1nc(-c2ccc(C(F)(F)F)cc2)no1
  i, 1, 104, x, -5, x, x
O=C(N/N=C/c1ccc(O)cc1)c1cccc(C(F)(F)F)c1
  i, 0.88, 106, -0.8, 3, -33, 104
CCN(CC)C(=O)CN(c1cccc(Br)c1)S(C)(=O)=O
  i, 0.89, 99, x, -5, x, x
CC(NC(=S)Nc1ccccc1OC(F)F)C(C)(C)C (stereo not given)
  i, 0.88, 100, 0.1, 11, x, x
O=C(CSCc1cnn(-c2ccccc2)c1-n1cccc1)NCc1ccccn1
  i, 1, 107, x, -1, x, x
CN(C)Cc1cc(CN(C)C)c(O)c(CCc2ccccc2)n1
  i, 0.87, 105, -0.6, 0, 10, 112
Cc1ccc2[nH]c(=O)c(CN(Cc3nnnn3C3CCCC3)C3CCCCC3)cc2c1
  i, 1.1, 99, -0.5, 8, x, x
NC(=O)CSc1nc2sc3c(c2c2ncnn12)CCCC3
  i, 0.95, 98, 0.2, 0, 33, 157

# Continuation.
# Value order: HSV replic up, HSV replic up primary fold, RGS16-Gao, GALR2 ag, PKD1 kinase inh, INS promoter inh, INS promoter inh cell count
O=[N+]([O-])c1ccc(N2CCNCC2)cc1NCc1cccnc1
  i, 0.93, 106, -0.7, 10, 67*, 150*
Cc1c(NC(=O)COC(=O)c2cc(-c3cccc4ccccc34)nc3ccccc23)c(=O)n(-c2ccccc2)n1C
  i, 2.1, 105, 0.4, 9, x, x
Cc1ccc(CCNC(=O)CS(=O)Cc2nc(-c3cccc(C)c3)oc2C)cc1 (stereo not given)
  i, 0.73, 99, -4.0, -8, x, x
Cc1ccc(-c2nn(-c3ccccc3)cc2/C=N/n2c(-c3ccncc3)n[nH]c2=S)cc1
  i, 0.85, 99, x, x, x, x
Cc1ccc(C)n1-c1ccc(N2CCOCC2)c([N+](=O)[O-])c1
  i, 0.84, 81, x, x, x, x
CCN(CC)c1ccc(NC(=O)COc2ccccc2C)cc1S(=O)(=O)Nc1ccccc1OC
  i, 1, 86, -1.7, 6, 16, 140
CC1CCN(S(=O)(=O)c2ccc(NC(=O)CN3CCN(C)CC3)cc2)CC1
  i, 0.97, 95, -2.8, -3, -7, 98
COc1ccc(Nc2ncc3c(n2)CC(c2ccccc2)CC3=O)cc1 (stereo not given)
  i, 0.76, 89, -0.6, 0, 8, 114
COC(=O)c1nc2nc(-c3cccs3)cc(C(F)(F)F)n2n1
  i, 0.99, 106, -0.6, -8, 15, 84
CCN(CC)C(=O)C(=O)Nc1ccc(Oc2ccccc2)cc1
  i, 0.79, 98, x, 2, 38, 152
COc1ccc(Cl)cc1NC(=O)CSc1nnc(COc2ccccc2)n1N
  i, 0.77, 102, -4.7, 10, -89, 89
Cc1ccc(N2C(=O)C3CC(c4ccccc4)=C4C5C=CC(C6C(=O)N(c7ccc(C)cc7C)C(=O)C56)C4C3C2=O)c(C)c1 (stereo not given)
  i, 0.99, 105, -2.9, -1, -22, 95
c1ccc(-c2csc(N3CCN(c4ccccn4)CC3)n2)cc1
  i, 1, 104, -0.9, -6, 60, 114
CC(C)(C)C1CCC(OC(=O)CN2CCOCC2)CC1 (stereo not given)
  i, 0.97, 5, -0.1, 5, -13, 103
O=C(CCC1CCCN(C(=O)c2ccc3c(c2)OCO3)C1)N1CCN(c2ccccn2)CC1 (stereo not given)
  i, 1, 108, x, -7, x, x
CCCc1nc(S(=O)(=O)Cc2ccc(Cl)cc2Cl)n[nH]1
  i, 1.2, 100, -1.0, -15, -46, 70
COc1cc(-c2nn3c(C4CCCCC4)nnc3s2)cc(OC)c1OC
  i, 0.87, 90, 0.0, -8, x, x
CC(C)CCn1nnnc1C(c1ccc(N(C)C)cc1)N1CCN(C(=O)c2ccco2)CC1 (stereo not given)
  i, 1.1, 101, -1.9, -28, 50, 77
CCOCCCNC(=O)CSc1nc2nc(C)c(Cc3ccccc3)c(C)n2n1
  i, 0.98, 108, x, -2, -133, 41
COC(=O)c1cc(COc2ccc3ccc(=O)oc3c2)c(C)o1
  i, 0.95, 97, -1.5, -8, -23, 123

# Later entries.
# Value order: HSV replic up, HSV replic up primary fold, RGS16-Gao, GALR2 ag, PKD1 kinase inh, INS promoter inh, INS promoter inh cell count
COc1ccc(CC(NC(C)=O)C(=O)NC2CCN(C(=O)C3CC3)CC2)cc1OC (stereo not given)
  i, 0.95, 107, x, 2, x, x
CCOC(=O)N1CCN(C(=O)c2ccc3c(=O)n(-c4ccc(OC)cc4OC)c(=S)[nH]c3c2)CC1
  x, x, 92, -1.3, 0, 24, 111
O=C(Cn1cc(C(=O)c2ccco2)c2ccccc21)Nc1ccccc1
  i, 0.96, 105, -1.4, -4, -7, 58
Cc1nnc2ccc(N3CCN(c4ccccn4)CC3)nn12
  i, 1, 111, -2.6, -9, x, x
Cc1oc(/N=C/c2ccc(O)cc2O)c(C#N)c1C
  x, x, 105, x, -3, 0, 193
COc1ccc(N/C=C\C(=O)c2ccc3c(c2)OCO3)cc1OC
  i, 0.95, 104, -0.6, 0, -51, 85
CC(C)NC(=O)NNC(=O)c1cc(COc2cc(Cl)cc(Cl)c2)on1
  i, 0.86, 100, x, x, x, x
O=C(O)C1CCCCC1C(=O)NCc1ccc2c(c1)OCO2 (stereo not given)
  i, 0.97, 145, x, -2, 7, 70
Clc1cccc(Cl)c1CNc1ccc(N2CCCC2)cc1
  i, 1.2, 99, x, 1, x, x
COc1ccc(/C=N/N=C2/NC(=O)C(CC(=O)O)S2)cc1OCc1ccc(Cl)cc1Cl (stereo not given)
  i, 0.87, 101, -0.2, -4, x, x
Cc1ccc(C(=O)C2CCN(CC(=O)Nc3ccc4c(c3)OCCO4)CC2)cc1
  i, 1.1, 109, -1.4, -15, x, x
CCOC(=O)/C(C#N)=C(C)/C=C1\Sc2ccccc2N1CC
  u, x, 97, 0.1, -15, -50, 103
CNC(=O)COC(=O)CCC(=O)c1cccs1
  i, 1.1, 100, x, -5, x, x
N[C@@]12CCc3nonc3[C@]1(O)CC(c1ccccc1)=[N+]2[O-]
  i, 0.86, 96, -3.7, -5, -24, 116
COc1ccc(CNC(=O)C(OC(=O)c2ccco2)c2ccc(OC)cc2)cc1 (stereo not given)
  i, 0.86, 99, -1.5, -2, -200, 122
CCOC(=O)N1CCN(S(=O)(=O)c2cc([N+](=O)[O-])ccc2C)CC1
  i, 0.99, 103, x, -2, x, x
CNC(=O)C1CCCN1S(=O)(=O)c1ccc(OC)cc1 (stereo not given)
  i, 1.1, 103, -1.5, -1, -30, 121
Clc1c(-c2nnc3n2CCC3)sc2ccccc12
  i, 0.98, 102, -0.6, 1, x, x
COc1ccc(CNC(C)(C)C)cc1Cl
  i, 0.88, 97, -2.5, -6, 3, 68
CCCCOC(=O)Nc1ccccc1C(=O)OC
  i, 1, 99, -0.4, 0, -57, 91

# The listing continues.
# Value order: HSV replic up, HSV replic up primary fold, RGS16-Gao, GALR2 ag, PKD1 kinase inh, INS promoter inh, INS promoter inh cell count
Cc1c(Cl)cccc1N1C(=O)C(N2C(=O)c3cccc([N+](=O)[O-])c3C2=O)C1c1cccs1 (stereo not given)
  x, x, 102, -2.5, -7, 58, 104
COc1ccc2c(c1)C(NC(C)=O)C(=O)N2CCc1ccccc1 (stereo not given)
  i, 0.86, 101, x, -7, 26, 131
COC(=O)c1c(NC(=S)Nc2ccc(CC(=O)O)cc2)sc(C)c1C
  i, 1.1, 102, -0.9, -9, 35, 115
C1CN(c2nc3nonc3nc2N2CCSCC2)CCO1
  i, 1, 95, x, x, x, x
CC1(C)OC(=O)C2(Cc3ccccc3N3CCCCC32)C(=O)O1 (stereo not given)
  i, 0.93, 107, -2.6, -14, 53, 126
O/N=C(\c1ccc(Cl)cc1Cl)c1ncc(C(F)(F)F)cc1Cl
  i, 0.7, 98, -3.4, -4, -6, 143
COCC(=O)Nc1ccc(S(=O)(=O)Nc2ccccn2)cc1
  i, 0.94, 99, x, 6, x, x
CC1(C)C(=O)N(OCc2ccccc2)C(C)(C)C(=O)N1OCc1ccccc1
  x, x, 105, -0.6, -7, 4, 115
O=C(CSc1nnc(C2CC2)n1Cc1ccccc1)N1CCN(S(=O)(=O)c2ccccc2)CC1
  i, 0.88, 106, 0.1, -4, -62, 90
Cc1cc(C(F)(F)F)c(C#N)c(=O)[nH]1
  i, 0.99, 51, -2.5, 6, 39, 143
CCOC(=O)C1=C(c2cccc(F)c2)NC(=S)NC1C (stereo not given)
  x, x, 98, -2.1, -1, -4, 119
Cc1ccc(-c2nnn(CC(=O)N(c3ccccc3)C(C(=O)NC(C)(C)C)c3cccs3)n2)o1 (stereo not given)
  i, 1.1, 100, -2.0, -10, -30, 109
Cc1ccc(CN2CCN(Cc3ccccc3-c3ccco3)CC2CCO)o1 (stereo not given)
  i, 0.75, 101, x, -5, x, x
CCCOc1ccccc1N1C(=O)CC(N2CCOCC2)C1=O (stereo not given)
  i, 0.64, 103, -1.7, 0, 25, 85
CC(CCO)Nc1nc2c(c(=O)n(C)c(=O)n2C)n1Cc1cccc(Br)c1 (stereo not given)
  i, 0.8, 102, 0.9, -12, 19, 67
COc1cccc(-c2nnc(-c3ccc(C(F)(F)F)cc3)o2)c1
  i, 1.1, 108, -1.3, -6, 3, 75
O=C1NC(=O)/C(=C\c2cn(Cc3ccccc3F)c3ccccc23)N1
  i, 0.93, 98, x, -3, 0, 183
Cc1ccc(C)c(N=C2CCCN2Cc2ccccc2)c1C#N
  i, 1, 102, -1.0, -8, 31, 100

# Screening results: PubChem, several laboratories
